D2 ag: agonists of human D2 dopamine receptor (beta-arrestin) | DiscoveRx PathHunter D2 beta-arrestin, luminescence, 90 min; 100% = 57 uM dopamine signal | activation, % (test concentration not listed) | 360,000 tested, 0.084% active | AID 624465; in the data active = activation above about 40%; inconclusive = about 15% to 40%; inactive = below about 15%; further: compound concentration not given in the record; the text of the record calls up to 30% inactive
Target sequence (P14416 whole entry, looked up): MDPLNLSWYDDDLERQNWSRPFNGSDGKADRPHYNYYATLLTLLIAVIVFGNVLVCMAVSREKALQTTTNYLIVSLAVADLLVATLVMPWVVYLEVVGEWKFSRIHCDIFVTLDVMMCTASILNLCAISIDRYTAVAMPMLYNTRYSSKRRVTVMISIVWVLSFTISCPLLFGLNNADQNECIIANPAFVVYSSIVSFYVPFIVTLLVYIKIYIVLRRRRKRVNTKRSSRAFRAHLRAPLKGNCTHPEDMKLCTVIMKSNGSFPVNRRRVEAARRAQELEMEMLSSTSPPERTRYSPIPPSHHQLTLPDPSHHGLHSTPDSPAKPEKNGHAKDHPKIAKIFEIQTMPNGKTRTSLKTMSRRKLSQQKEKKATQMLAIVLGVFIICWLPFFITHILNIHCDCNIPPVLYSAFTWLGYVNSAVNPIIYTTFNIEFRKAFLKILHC
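Agonist mode: compounds alone added to overnight-plated D2 PathHunter cells for 90 min at 37 C, with 57 uM final dopamine (EC100) defining full response. Beta-arrestin recruitment detected by chemiluminescent reagent, read after 1 h at ambient temperature.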
D2 PAM: human D2 receptor positive allosteric modulation | P14416 | DiscoveRx D2 beta-arrestin cells, luminescence, 90 min; 100% = 57 uM dopamine signal | potentiation, % (concentration not given with the values) | 360,000 tested, 0.23% active | AID 624464; active = potentiation of 50% or more; inconclusive = 30% to 50%; inactive = 30% or less;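 further: compound concentration not given in the record; tested on top of an EC20 dose of dopamine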
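D2 cells co-treated with compound plus 50 nM dopamine (EC20) for 90 min at 37 deg C to detect potentiation. Beta-arrestin recruitment was read as enzyme-fragment luminescence after 1 h at ambient temperature. Full response was set by 57 uM dopamine.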
TRPML1 ag: activates the human TRPML1 channel; Q9GZU1; TRPML1-expressing cells, Ca2+ dye fluorescence, FDSS; host cell line not named in the record; reference of the full effect not given here; activation, % (no concentration beside the values); 410,000 tested, 0.12% active; in the data active = activation above about 50%; inconclusive = about 30% to 50%; inactive = below about 30%; further: 0% is about no effect; the text of the record puts the active cut at 80%
Target sequence (Q9GZU1 whole entry, looked up): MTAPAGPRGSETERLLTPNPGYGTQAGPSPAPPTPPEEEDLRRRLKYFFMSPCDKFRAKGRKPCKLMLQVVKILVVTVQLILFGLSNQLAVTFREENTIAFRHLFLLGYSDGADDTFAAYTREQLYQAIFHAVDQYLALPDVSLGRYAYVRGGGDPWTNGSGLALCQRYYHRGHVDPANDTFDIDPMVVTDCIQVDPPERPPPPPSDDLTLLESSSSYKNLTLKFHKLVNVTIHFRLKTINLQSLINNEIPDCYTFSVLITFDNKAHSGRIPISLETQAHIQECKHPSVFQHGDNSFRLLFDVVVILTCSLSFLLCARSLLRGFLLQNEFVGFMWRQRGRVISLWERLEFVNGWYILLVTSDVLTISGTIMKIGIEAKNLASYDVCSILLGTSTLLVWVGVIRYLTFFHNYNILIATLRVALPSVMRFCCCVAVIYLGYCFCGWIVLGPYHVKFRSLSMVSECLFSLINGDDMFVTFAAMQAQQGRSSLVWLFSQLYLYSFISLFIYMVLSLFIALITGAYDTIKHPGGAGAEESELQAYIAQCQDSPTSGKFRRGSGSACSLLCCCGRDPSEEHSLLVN
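Tet-induced TRPML1-DL cells, 1,500 per well, cultured overnight, were loaded with a no-wash Ca2+ dye for 45–90 min. Calcium fluorescence was recorded on the FDSS for 110 s after compound addition, before the EC80 agonist (4 uM 54-4) was added.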
PINK1 modulator: PINK1 expression modulation. PINK1 immunofluorescence, high-content cytometry, 24 h. Potency, µM (top dose mostly 76.6 µM), inactives show top-dose activation (PINK1 increase), most hits filed as activators. 410,000 tested, 0.2% active; active = well fitted activation curve with a large enough effect; inconclusive = small, poorly fitted or top-dose-only effect; inactive = flat fitted curve, though single readings scatter; cell line not stated here;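 further: potency means the concentration at half of the fitted maximal effect; % of control where 0% means no effect; nearly all actives have a fitted effect of over 65% in size; a mitochondrial uncoupler was the plate control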
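Stable cell line, 250 cells/well, 12 h attachment; compounds pinned at 5 concentrations, 24 h; CCCP control. Fixed with nuclear dye, primary antibodies 12 h at 10 degrees C, secondary plus cell stain; laser-scanning cytometer read.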
TRPML1 blocker: human mucolipin-1 channel inhibition. AID 624415. 390,000 tested, 0.02% active. TRPML1-inducible cells, Ca2+ dye fluorescence, FDSS; hits give low values; inhibition of EC80 agonist-evoked calcium signal. Q9GZU1. activity change, negative = inhibition, % (test concentration not listed); in the data active means activity change below about -50%; inconclusive means about -30% to -50%; inactive means above about -30%;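 further: stimulus is agonist 54-4 at its EC80 concentration; on the % scale 0 is the no-effect control and ±100 the full control effect; compound concentration not given in the record; the text of the record puts the active cut at -80%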
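Calcium fluorescence in TRPML1-DL cells induced overnight with Tet: a 110 s read after compound pin addition, then a 110 s antagonist read after challenge with 54-4 at 4 uM final (EC80).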
Six1-Eya2 inh: inhibitors of human Six1/Eya2 interaction | AlphaScreen GST-Six1/His-Eya2 binding, biochemical; hits give low values; control for the full effect not named in the record | activity change, % (concentration not given with the values) | 360,000 tested, 0.56% active | AID 651725; in the data active = activity change below about -65%; inconclusive = about -30% to -65%; inactive = above about -30%; further: on the % scale 0 is the no-effect control and ±100 the full control effect
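AlphaScreen luminescence read after one hour at 37 °C in darkness. Pin-transferred compounds met GST-Six1 and His-Eya2 protein (5X stock 250 nM/500 nM) plus glutathione donor and Ni-chelate acceptor beads (5X, 50 ug/mL).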
* = called active by the depositor; ? = inconclusive; / = not tested or not shown; [ ] = remark or other dose.

SMILES	D2 ag	D2 PAM	TRPML1 ag	PINK1 modulator	TRPML1 blocker	Six1-Eya2 inh
COc1cc(N)c(Cl)cc1C(=O)OCC(=O)N1CCCCCC1	5.8	-3.4	-0.4	-0.6%	-7.6	4.0
CCOC(=O)c1cc2c(=O)n3ccccc3nc2n(CC(C)C)c1=NC(=O)c1cc2ccccc2o1	/	/	-0.7	3.3%	9.9	/
Cc1c(C#N)c(NC(=O)CCl)n(Cc2cccs2)c1C	-0.4	-9.9	-0.1	-1.0%	-2.8	-1.8
CCc1cccc(C)c1NC(=O)COC(=O)CCn1c(C)csc1=O	-1.5	-5.8	-0.3	-0.1%	-2.5	2.3
COc1ccc(CCNC(=O)CSc2nc3[nH]ncc3c(=O)n2-c2ccc(Br)cc2)cc1OC	9.1	-3.3	3.0	-1.0%	-2.6	-3.9
COc1ccc(C(=O)N[C@H](C(=O)NCc2ccco2)C(C)C)cc1	-2.5	-5.6	-1.1	-0.7%	20.9	4.7
C=CCNC(=S)NNC(=O)c1ccc(Br)o1	-5.1	-20.8	0.3	0.5%	-8.1	1.9
CSc1cccc(NC(=O)CNS(=O)(=O)c2ccccc2)c1	-0.1	7.5	-0.6	-0.3%	7.8	1.7
CCOc1ccc(NC(=O)CSc2nc3ccsc3c(=O)n2CCCCC(=O)O)cc1	-1.9	-1.1	-0.9	-1.0%	-4.1	-10.5
COc1ccc(-c2nc(Cn3c(SCc4cccc(F)c4)nc4ccncc43)c(C)o2)cc1OC	1.4	-2.8	-0.2	-1.1%	-0.5	-22.8
CCCS(=O)(=O)N1CC(=O)N(c2ccc(C)cc2)C(C)(C(=O)NC2CCCCCC2)C1 (stereo unspecified)	/	/	0.8	1.1%	43.7	/
CC1(c2nnnn2-c2ccc3c(c2)OCCO3)CCC(=O)N1CCOc1ccccc1 (stereo unspecified)	/	/	-0.5	-1.3%	/	2.2
CC(C)On1c(SC(C)C)nc2ccccc2c1=O	0.5	-4.2	-0.1	/	-9.8	6.3
O=C(NN=Cc1ccc2c(c1)CCC2)c1ccccc1O	-8.7	-14.2	0.0	2.6%	2.5	-0.9
CC1CN(C(=O)C2CCCCC2)C(C)CN1C(=O)C1CCCCC1 (stereo unspecified)	-0.8	2.0	1.6	-1.3%	-10.4	-0.7
CC(=O)Nc1ccc(S(=O)(=O)Nc2nc(C)cc(-n3nc(C)cc3C)n2)cc1	-6.1	-5.9	-0.1	-0.4%	8.8	-3.9
COc1cc(C2C(c3ccccc3)C(c3cc(OC)cc(=O)o3)C2c2ccccc2)oc(=O)c1 (stereo unspecified)	2.8	-24.4	/	0.0%	/	-2.4
Cc1cccc(C(=O)Nc2cccc(Br)c2)c1[N+](=O)[O-]	-11.5	-7.2	0.3	2.1%	-4.7	10.6
COc1ccc(OC)c(NC(=O)CSc2nc(-c3ccccc3)cc(=O)[nH]2)c1	-1.8	21.7	-0.9	0.6%	22.0	-4.1
Cc1sc(NC(=O)c2cc(-c3ccc(Cl)cc3)nc3ccccc23)c(C(N)=O)c1C	-3.3	-3.9	-0.8	3.7%	-21.5	-3.7
COc1ccc(CCNC(=O)COC(=O)Cc2cccc(F)c2)cc1	-2.2	-2.2	-1.0	1.8%	-17.6	6.9
NC(=O)c1oc2ccccc2c1NC(=O)c1ccccc1	-1.7	9.6	3.5	-0.6%	-21.2	-9.6
N#Cc1cccc(NC(=O)CCNS(=O)(=O)c2ccc3[nH]c(=O)oc3c2)c1	4.9	-9.6	0.8	2.4%	4.5	-6.9
CN1CCc2c(sc(NC(=O)C3CCN(S(=O)(=O)c4cccs4)CC3)c2C(N)=O)C1	-0.4	7.6	0.9	-5.3%	0.8	-1.2
O=c1[nH]oc2cc(Cl)ccc12	-5.0	-15.6	-0.5	1.3%	58.0	10.9
CCOP(=O)(c1c(F)c(F)c(F)c(F)c1F)C(O)c1ccccc1 (stereo unspecified)	-2.7	16.6	0.5	-0.6%	0.3	-9.0
O=C(Nc1ccc(Br)cc1F)c1cc(S(=O)(=O)NC2CCCC2)ccc1F	/	/	4.3	-0.3%	28.3	/
N/C(=N\OC(=O)Cc1ccc(Cl)cc1)c1ccccn1	-2.0	1.3	0.2	-0.5%	3.0	7.2
CC(C)Oc1ccc(CN2CCc3nc(Nc4ccc5c(c4)OCCO5)ncc3C2)cc1	/	/	-0.2	4.4%	5.7	/
COc1cc(C(F)(F)F)ccc1C(=O)NCCc1ccco1	0.7	-4.2	/	1.7%	/	-2.6
Cc1nn(-c2ccccc2)c2c1C(O)n1c(nc3ccccc31)S2 (stereo unspecified)	-3.2	17.4	0.3	/	9.9	-2.2
CC(C)(C)C(=O)NC(=S)N1CCc2ccccc21	-4.5	-13.2	0.0	1.8%	32.9	3.3
Cc1ccc(C(=O)C(C)OC(=O)C2=COCCO2)cc1C (stereo unspecified)	-0.5	9.6	1.4	-1.6%	-3.3	-0.3
CSc1ncc(C(=O)N2CCN(c3cccc(C(F)(F)F)c3)CC2)c(C)n1	/	/	1.2	2.5%	3.5	/
Cc1ccc(NC(=O)COc2cccc3ccc(C)nc23)c(Br)c1	-2.7	1.6	-0.1	1.2%	23.3	-23.2
COc1ccc(S(=O)(=O)N(C)C[C@H]2OCc3cnnn3CCCC(=O)N([C@H](C)CO)C[C@H]2C)cc1	4.1	-1.4	1.4	0.4%	8.0	10.5
CCOC(=O)c1cccc(NC(=O)c2cc(S(=O)(=O)N3CCCCCC3)cn2C)c1	/	/	-0.4	0.9%	0.2	/
O=C(Nc1cccc(-n2cnnn2)c1)c1ccccc1Br	-3.5	-9.8	-0.1	-0.3%	-14.4	-0.6
COC(=O)c1cc(C#N)c(N2CCOCC2)nc1C	3.3	-6.2	0.5	-2.1%	7.1	3.6
O=[N+]([O-])c1ccccc1C=NNC(=S)NN=Cc1ccccc1[N+](=O)[O-]	-5.5	-10.6	0.0	6.2%	14.0	?
Cc1c(-c2nnc(-c3ccc(C(F)(F)F)cc3)o2)cnn1-c1ccccc1	-3.5	1.7	-0.2	0.1%	22.7	7.7
CNC(=O)c1sccc1S(=O)(=O)Cc1c(Cl)cccc1Cl	-4.2	-0.4	-0.7	-1.7%	2.8	-2.4
COc1ccc(OC)c(C2CC(=O)Nc3c2c(=O)n(C)c2ncnn32)c1 (stereo unspecified)	/	/	0.3	0.6%	13.6	/
COc1ccc(C(=O)NC(c2ccc(Cl)cc2)c2cc(Cl)c3cccnc3c2O)cc1 (stereo unspecified)	/	/	0.9	1.2%	5.6	/
COc1ccccc1CCNC(=O)C1CCC(=O)N(Cc2cccc(F)c2)C1 (stereo unspecified)	-5.2	-9.3	0.4	-0.2%	?	17.9
CSc1ccc(CN2CCSCC2)cc1	-4.3	-15.3	-0.2	0.9%	4.5	-2.1
COc1ccccc1CNC(=O)CCNC(=O)c1ccco1	2.1	-24.3	0.2	1.8%	-4.2	10.2
CCN(c1ccccc1)S(=O)(=O)c1ccc(Cl)c(C(=O)NC2CCN(Cc3ccccc3)CC2)c1	-1.5	-38.9	0.8	-5.4%	12.2	-9.5
COc1cc(NC(=O)CCCN2C(=O)NC(C)(C)C2=O)cc(OC)c1	-3.4	-11.5	4.3	6.2%	45.0	-0.1
O=C(COC(=O)c1cc(-c2cccs2)nc2ccccc12)c1ccc(F)cc1	/	/	0.4	3.8%	50.5	/
CCOC(=O)c1c(NC(=O)Cc2cccs2)sc(C(=O)NC2CCCC2)c1C	-1.2	-15.8	-0.6	10.3%	-6.3	4.0
CC(C)N(C(=O)Cn1cnc2c(cnn2-c2ccccc2Cl)c1=O)C(C)C	0.8	-1.8	-0.1	-2.7%[38.3 µM]	-1.5	4.2
CC(=O)N1CC(=O)N(OCc2ccccc2)C1c1ccc(Cl)cc1Cl (stereo unspecified)	0.5	-2.3	0.9	-0.6%[38.3 µM]	17.0	6.3
O=C(NCC(c1cccs1)N1CCOCC1)c1ccccc1NS(=O)(=O)c1ccc(Cl)cc1 (stereo unspecified)	6.1	-3.2	0.0	4.6%	11.9	2.3
O=c1[nH]ccc2c(O)cccc12	-4.4	-14.2	-0.5	-0.4%	-18.6	1.0
O=C(/C=C/c1ccc([N+](=O)[O-])cc1)OCC(=O)c1ccc[nH]1	3.5	-19.1	-0.4	-1.9%	7.9	-11.7
O=[N+]([O-])c1ccc2[nH]ncc2c1	2.3	27.4	-0.3	-0.4%	-2.5	-4.0
CC(C)CC(c1nnnn1Cc1ccco1)N1CCN(c2cccc(Cl)c2)CC1 (stereo unspecified)	-4.1	-17.0	0.6	3.3%	-2.0	-3.3
OC(c1ccc(F)cc1)c1nc(-c2ccoc2)cs1 (stereo unspecified)	-1.9	-1.4	-1.0	3.7%	/	1.0
CCn1nc(NC(=O)c2ccccn2)c2cc3cc(C)ccc3nc21	-1.7	6.3	1.4	4.1%	-1.5	24.1

(cont.)
SMILES	D2 ag	D2 PAM	TRPML1 ag	PINK1 modulator	TRPML1 blocker	Six1-Eya2 inh
Nc1c(N(CCC2=CCCCC2)C(=O)COc2ccc([N+](=O)[O-])cc2)c(=O)[nH]c(=O)n1Cc1ccccc1	-2.1	-10.4	0.1	-0.8%	8.4	7.0
C[N+]1(CCCCSc2ccc(O)cc2)CCCCC1	0.7	-7.6	-0.8	0.0%	-8.3	2.8
CC(NC(=O)CN(c1cccc(C(F)(F)F)c1)S(C)(=O)=O)c1ccccc1 (stereo unspecified)	6.3	-5.2	-0.2	-0.2%	-6.0	6.1
CCOc1ccccc1-c1noc(CSc2nnc(-c3ccccc3)n2-c2ccc(OC)cc2)n1	/	/	0.5	0.4%	19.5	/
CCC(C)(C)NC(=O)c1ccccc1Oc1ccccc1	-5.5	-5.4	2.2	1.7%	-11.2	22.2
CC1(C)CC(=O)C2=C(C1)OC1=C(C(=O)CC(C)(C)C1)C2c1cc([N+](=O)[O-])cc([N+](=O)[O-])c1O	-2.6	-10.8	1.8	3.2%	-10.0	-6.9
O=C(Nc1cccc(NC(=O)c2ccco2)n1)c1ccco1	1.9	-1.1	0.6	2.2%	18.7	-7.9
COc1ccccc1CNC(=O)c1ccc(S(=O)(=O)N(C)C)cc1	-2.2	-4.6	0.7	?	3.3	-0.8

Part of the list above in order of count of non-hydrogen atoms, ascending.
SMILES	D2 ag	D2 PAM	TRPML1 ag	PINK1 modulator	TRPML1 blocker	Six1-Eya2 inh
O=C(Nc1cccc(NC(=O)c2ccco2)n1)c1ccco1	1.9	-1.1	0.6	2.2%	18.7	-7.9
COc1ccccc1CNC(=O)c1ccc(S(=O)(=O)N(C)C)cc1	-2.2	-4.6	0.7	?	3.3	-0.8
CC1(C)CC(=O)C2=C(C1)OC1=C(C(=O)CC(C)(C)C1)C2c1cc([N+](=O)[O-])cc([N+](=O)[O-])c1O	-2.6	-10.8	1.8	3.2%	-10.0	-6.9
CCOc1ccccc1-c1noc(CSc2nnc(-c3ccccc3)n2-c2ccc(OC)cc2)n1	/	/	0.5	0.4%	19.5	/
Nc1c(N(CCC2=CCCCC2)C(=O)COc2ccc([N+](=O)[O-])cc2)c(=O)[nH]c(=O)n1Cc1ccccc1	-2.1	-10.4	0.1	-0.8%	8.4	7.0

Bioassay records from PubChem BioAssay.
